RGS16-Gao HTS – modulators of RGS16 binding to Galphao, primary screen, biochemical, human proteins, multiplexed bead flow cytometry; binding response (% of control), % at 10 µM; bead-based flow cytometry RGS16-Galphao binding, fluorescence; actives lie on both sides; hit rate 0.38% among 220,000; Regulator of G-protein signaling 16 (Homo sapiens) + Guanine nucleotide-binding protein …;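 active means below 25% or above 175%, edge rows of some plates excepted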;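 further: Galphao activated by GDP with aluminum fluoride before binding; 100% = wells without compound and 0% = beads without RGS; some results beyond the cut were filed as inactive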
HSV augment – enhancers of HSV replication in host cells, fold increase, host cell viability; HSV replication augmentation in cells; maximum fold increase; hit rate 0.005% among 220,000;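 active means peak rise of 1.5-fold or more in the series; tested in PC3 cells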;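 further: first round at 10 µM; read as green reporter fluorescence; hits show the peak of a series up to 25 µM; 1 = signal of infected wells without compound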
PKD1 inh – inhibitors of human PKD1 kinase, biochemical, fluorescence polarization. inhibition, %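 (about 10 µM by stock and volumes)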. AID 797, 2007. PKD1 kinase fluorescence polarization assay. hit rate 0.056% among 200,000;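 active means inhibition of 50% or more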;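 further: controls were vehicle for no effect and a reference inhibitor for full effect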
Target sequence (Q15139 whole entry, looked up): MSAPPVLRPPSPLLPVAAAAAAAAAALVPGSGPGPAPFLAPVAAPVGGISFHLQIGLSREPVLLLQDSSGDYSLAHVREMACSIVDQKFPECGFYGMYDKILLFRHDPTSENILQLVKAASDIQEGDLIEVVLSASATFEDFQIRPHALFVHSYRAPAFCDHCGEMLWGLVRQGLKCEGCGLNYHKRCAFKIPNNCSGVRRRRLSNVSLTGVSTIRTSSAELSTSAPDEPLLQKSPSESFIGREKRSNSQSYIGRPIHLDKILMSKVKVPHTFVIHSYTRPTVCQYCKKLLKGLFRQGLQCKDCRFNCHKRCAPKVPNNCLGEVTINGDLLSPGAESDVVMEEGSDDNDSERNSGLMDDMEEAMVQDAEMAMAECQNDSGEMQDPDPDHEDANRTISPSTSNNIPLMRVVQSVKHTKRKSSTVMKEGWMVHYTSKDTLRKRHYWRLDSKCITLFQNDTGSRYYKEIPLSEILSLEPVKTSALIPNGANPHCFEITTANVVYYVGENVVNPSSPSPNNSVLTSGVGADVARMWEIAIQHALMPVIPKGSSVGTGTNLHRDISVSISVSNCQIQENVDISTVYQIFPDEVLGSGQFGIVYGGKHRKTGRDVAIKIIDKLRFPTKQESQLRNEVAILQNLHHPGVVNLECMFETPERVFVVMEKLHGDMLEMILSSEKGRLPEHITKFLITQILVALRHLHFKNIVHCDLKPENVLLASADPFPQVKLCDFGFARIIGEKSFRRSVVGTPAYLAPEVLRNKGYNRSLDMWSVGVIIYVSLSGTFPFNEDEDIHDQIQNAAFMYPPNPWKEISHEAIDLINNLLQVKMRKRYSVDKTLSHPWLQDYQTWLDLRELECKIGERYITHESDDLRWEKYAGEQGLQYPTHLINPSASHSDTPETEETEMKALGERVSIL
GALR2 agonist – GALR2 receptor agonists, primary screen, cell-based. Galanin receptor type 2 (Homo sapiens), O43603. activation, %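 (tested at 5 µM)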. GALR2-expressing cells, agonist activation read-out. AID 803, 2007. hit rate 0.48% among 140,000;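 active means above mean plus 3 SD of all compounds, about 5% in these data, not always enough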;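 further: 0% = vehicle buffer wells and 100% = reference agonist at full effect; tested in CHO reporter cells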
INS promoter inh – inhibitors of insulin promoter-driven GFP, primary screen, imaging, TRM-6 cells (human fetal islet line), eGFP reporter, cell count | hit rate 0.9% among 130,000 | inhibition, % at 2 µM | reporter expression induced with tamoxifen;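 active means inhibition above the mean plus 3 SD, with well images judged a real hit on visual review, cut at about 60% in these data, passing the limit was not always enough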
INS promoter inh cell count – recorded beside INS promoter inh, whose call it bears; normalized cell count, %; measured here: cell count, toxicity; reference of the scale not given here;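 cells exposed to compound for 48 h; stained nuclei by imaging scaled within each plate; lower means fewer cells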
HSV augment primary fold – also measured in HSV augment; calls as there; fold increase; compound at 10 µM; measured here: primary screen fold increase 10 uM; tested in PC3 cells;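 GFP signal in the first replicate; 1 = infected wells without compound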
An asterisk follows results filed as active; i = inactive; nt = not tested or not shown.

SMILES | RGS16-Gao HTS | HSV augment | HSV augment primary fold | PKD1 inh | GALR2 agonist | INS promoter inh | INS promoter inh cell count
COc1cc2cc(C(c3nnnn3C(C)(C)C)N3CCc4ccccc43)c(=O)[nH]c2cc1OC (stereo unspecified) | 101 | i | 0.71 | 2 | -2.1 | 36 | 62
CCCC(=O)NC(=S)Nc1ccc(N2CCOCC2)c(Cl)c1 | 105 | i | 0.93 | 14 | -0.3 | 5 | 109
CCOc1ccccc1NC(=O)CN(Cc1ccccc1)S(C)(=O)=O | 88 | i | 0.93 | 7 | -1.8 | -33 | 123
Cc1[nH]c2ccccc2c1/C=N/NC(=O)CNC(=O)c1cccs1 | 106 | i | 0.95 | nt | nt | nt | nt
Cc1ccc(S(=O)(=O)N(C)C)cc1NC(=O)c1ccc(OC(F)(F)F)cc1 | 102 | i | 0.97 | -5 | -1.1 | nt | nt
CC(C)(C)C(=O)N1CCC[C@H]1C(O)(c1ccccc1)c1ccccc1 | 63 | i | 0.95 | 8 | -0.6 | -31 | 106
CCOc1cccc(OCCOCCOc2ccccc2C(C)=O)c1 | 57 | i | 1 | -5 | -1.4 | -17 | 41
C[C@@H](C(=O)NCC1CC1)[C@@H]1C[C@@]1(C)[C@@H](NC(=O)OCc1ccccc1)c1ccccc1 | 112 | i | 1.1 | 12 | -2.3 | 0 | 124
O=C(CSc1nc2ccccc2[nH]1)c1ccc2c(c1)OCO2 | 105 | i | 0.84 | -6 | -0.8 | 57 | 126
COc1cccc(-c2nc(Oc3cc(C)cc(C)c3)c3ccccc3n2)c1O | 95 | i | 1.1 | -6 | -2.6 | nt | nt
O=C(O)C1=C[C@@H](c2ccc(C(F)(F)F)cc2)C[C@@H](OCc2ccc(CO)cc2)O1 | 100 | nt | nt | -1 | nt | nt | nt
O=C(O)CN1C(=O)CC(Cc2ccc(Cl)cc2)C1=O (stereo unspecified) | 95 | i | 1 | 8 | -0.9 | nt | nt
Cc1cccc(NC(=O)CSc2nnc(-c3ccco3)c(-c3ccco3)n2)c1C | 83 | i | 1.2 | 0 | -2.2 | 11 | 102
O=C(C[n+]1ccc(-c2nnc3n2CCCCC3)cc1)c1ccc(Cl)cc1 | 74 | i | 1 | nt | nt | nt | nt
CCOC(=O)C(=NCCCN(C)C)NNc1ccc(Br)cc1 | 86 | i | 0.99 | -7 | 1.0 | -17 | 86
Clc1ccc(-n2nnc(-c3cccnc3Cl)n2)cc1Cl | 102 | i | 1.2 | 1 | nt | nt | nt
CCOC(=O)N/N=C/c1ccccc1F | 102 | nt | nt | 1 | -2.5 | nt | nt
CCN1CCN(CCCN(Cc2ccco2)C(=S)Nc2ccc(C)c(Cl)c2)CC1 | 98 | i | 0.87 | 5 | nt | nt | nt
COC(=O)c1cc(NC(=O)c2ccc(-c3ccccc3)cc2)ccc1Cl | 111 | i | 0.84 | -5 | -2.5 | -8 | 70
O=C(NCCc1ccccc1)c1noc2c1CCc1ccccc1-2 | 99 | i | 0.97 | 36 | -3.3 | 20 | 102
COc1ccc(CCNC(=O)NC23CC4CC(CC(C4)C2)C3)cc1OC | 99 | i | 0.96 | -3 | -2.9 | 26 | 89
Nc1nc2nccc(-c3ccco3)n2n1 | 97 | i | 0.86 | -7 | nt | -14 | 74
CC(C)C1N=C(c2ccc3c(c2)OCO3)CC(c2ccccc2O)N1 (stereo unspecified) | 75 | i | 0.78 | -6 | -1.9 | 19 | 139
CCc1ccc(OCC(=O)NC2CC(C)(C)NC(C)(C)C2)cc1 | 102 | i | 1.1 | -1 | nt | nt | nt
CN(Cc1cccs1)C(=O)CSc1nc(N)cc(N)n1 | 93 | i | 0.89 | 1 | nt | nt | nt
CCC(=O)Nc1ccc(-c2nn3c(C)nnc3s2)cc1 | nt | nt | nt | 2 | -4.0 | 60 | 131
Cc1ccccc1-n1c(=S)[nH]c2nc3c(cc2c1=O)CCCC3 | 103 | i | 1 | -1 | nt | nt | nt
Cc1ccc(S(=O)(=O)N2CCCC(C(=O)NCCC3=CCCCC3)C2)cc1 (stereo unspecified) | 131 | i | 0.85 | 4 | -1.2 | nt | nt
CCNC(=S)N/N=C(\C)c1ccc2c(c1)OCCO2 | 49 | i | 0.91 | -5 | -1.6 | 0 | 131
CN1C[C@@H]2C(c3ccc(C(F)(F)F)cc3)C3(c4ccccc4)CC2(C3)[C@H]1c1ccccc1 (stereo partly specified) | 98 | i | 0.97 | nt | nt | nt | nt
CC(=O)c1cccc(N(C(=O)c2ccccn2)C(C(=O)NC2CCCCC2)c2cccs2)c1 (stereo unspecified) | 104 | i | 0.81 | -5 | -1.2 | -50 | 144
CCC(C)NCCCOc1ccc(Cl)cc1C(C)(C)C (stereo unspecified) | 65 | i | 0.94 | -5 | -1.1 | 43 | 78
Cc1cc(=O)oc2cc(OCC(=O)OCC(=O)Nc3ccc(C(N)=O)cc3)ccc12 | 102 | i | 1.1 | nt | nt | nt | nt
Cc1ccc(S(=O)(=O)NCCn2c(C)cc3ccccc32)cc1 | 102 | nt | nt | 0 | -0.8 | -64 | 85
CCn1cc(CNCc2cn[nH]c2-c2cc3ccccc3o2)cn1 | 107 | i | 1.1 | 2 | nt | nt | nt
COc1ccc2c(C)cc(N3CCN(c4ccc(F)cc4)CC3)nc2c1 | 104 | i | 0.89 | -8 | -3.0 | 20 | 160
COc1ccc(-c2c3c(nc4sc5c(Cl)nc(C)nc5c24)CCC3)cc1 | 131 | i | 0.86 | -1 | -1.4 | -30 | 78
Cc1ccc(CN2CCN(/N=C/c3cccs3)CC2)cc1 | 99 | i | 0.98 | 3 | -2.5 | 25 | 133
Cc1ccc2[nH]c3c(c2c1)CN(C(=O)CN(C)CC1OCCO1)CC3 | 96 | i | 0.97 | -6 | -1.9 | 11 | 98
O=C1NCCCc2nc(Oc3ccccc3)sc21 | 100 | i | 0.92 | -1 | -0.7 | nt | nt
COC(=O)c1ccc(NC(=O)Nc2ccc(C)cc2)cc1 | i | i | 0.86 | -5 | -1.8 | 52 | 119
COC(=O)c1nnn(-c2nonc2N)c1CSc1nnc(N)s1 | 97 | i | 0.95 | 3 | nt | 42 | 119
CC(C)(C)c1ccc(C(=O)Nc2ccc(N3CCOCC3)cc2)cc1 | 107 | i | 0.62 | 2 | -1.2 | -11 | 153
Oc1c(C(Nc2cccc(C(F)(F)F)c2)c2cccnc2)ccc2cccnc12 (stereo unspecified) | 107 | i | 0.77 | -13 | -0.6 | 47 | 86
CCC1ON(C(C)C)C2c3nc4ccccc4n3CC12 (stereo unspecified) | 104 | i | 0.9 | nt | nt | nt | nt
Cc1c(NC(=O)CC(O)(C(F)(F)F)C(F)(F)F)c(=O)n(-c2ccccc2)n1C | 101 | i | 1 | -8 | -2.6 | -38 | 123
CCCCCC(=O)Nc1nc(C)c(-c2csc(Nc3ccccc3OC)n2)s1 | 101 | i | 0.67 | 18 | -1.1 | -56 | 54
CC(=O)Nc1ccc(S(=O)(=O)Nc2cccc(N(C)S(C)(=O)=O)c2)cc1 | 100 | i | 0.93 | 1 | 1.2 | 15 | 54
CN(C(=O)c1ccc(S(=O)(=O)N2CCCC2)cc1)C1CCCCC1 | 108 | nt | nt | -1 | -2.0 | -29 | 142
CCOc1ccccc1/C=C(\NC(=O)c1ccccc1)C(=O)NCCC(=O)O | 98 | i | 0.99 | -14 | -0.5 | -36 | 64
O=C(O)c1ccc(COc2ccc(CO)cc2Cl)cc1 | 105 | i | 0.81 | -20 | -1.2 | -21 | 92
COC(=O)C(NC(C)=O)(Nc1nc2c(s1)CCCC2)C(F)(F)F (stereo unspecified) | 101 | i | 1.1 | -8 | -0.7 | 12 | 114
COc1cccc(/C(N)=N/OC(=O)Cc2ccccc2[N+](=O)[O-])c1 | 96 | i | 1 | -1 | nt | -24 | 144
Clc1cccc(NCc2cn3cccnc3n2)c1 | 98 | i | 1 | 0 | nt | 7 | 100
Cc1c(Cl)cccc1NC(=S)N1CCN(c2ccccn2)CC1 | 112 | i | 0.97 | 2 | nt | nt | nt
CC(C(=O)OCn1nnc2ccccc2c1=O)N1C(=O)c2ccccc2C1=O (stereo unspecified) | 98 | i | 0.88 | -2 | -2.6 | 56 | 157
CCn1c(CNC(=O)COc2ccc(C(C)C)cc2)nnc1SCC(=O)Nc1ccccc1 | 102 | i | 0.81 | -3 | -1.8 | -37 | 111
CCCCCCCC(=O)NNC(=O)c1c(O)c2ccccc2n(CCC)c1=O | 99 | i | 0.95 | 0 | nt | nt | nt
COc1cccc(N(CC(=O)NC(C)c2ccccc2)S(C)(=O)=O)c1 (stereo unspecified) | 113 | i | 0.99 | 3 | -1.5 | nt | nt
O=C(Nc1ccccc1)N1CCN(S(=O)(=O)c2ccccc2)CC1 | 98 | i | 1 | -1 | nt | nt | nt

One compound at a time, as listed above. Order of values: RGS16-Gao HTS | HSV augment | HSV augment primary fold | PKD1 inh | GALR2 agonist | INS promoter inh | INS promoter inh cell count
Profile of `CN(C(=O)c1ccc(S(=O)(=O)N2CCCC2)cc1)C1CCCCC1` → 108 | nt | nt | -1 | -2.0 | -29 | 142
Profile of `COC(=O)C(NC(C)=O)(Nc1nc2c(s1)CCCC2)C(F)(F)F` (stereo unspecified) → 101 | i | 1.1 | -8 | -0.7 | 12 | 114
Profile of `COc1cccc(/C(N)=N/OC(=O)Cc2ccccc2[N+](=O)[O-])c1` → 96 | i | 1 | -1 | nt | -24 | 144
Profile of `O=C(O)c1ccc(COc2ccc(CO)cc2Cl)cc1` → 105 | i | 0.81 | -20 | -1.2 | -21 | 92
Profile of `CCCCCCCC(=O)NNC(=O)c1c(O)c2ccccc2n(CCC)c1=O` → 99 | i | 0.95 | 0 | nt | nt | nt

Later entries.
SMILES | RGS16-Gao HTS | HSV augment | HSV augment primary fold | PKD1 inh | GALR2 agonist | INS promoter inh | INS promoter inh cell count
N#Cc1nc(-c2ccco2)oc1N1CCC(C(N)=O)CC1 | 100 | i | 1.1 | 0 | -1.1 | -93 | 110
Cc1cc(SCC(=O)NC(=O)NCc2ccco2)nc2c(C)cccc12 | 93 | i | 0.96 | -5 | -0.9 | -9 | 108
Cn1ncc2c(Nc3cccc(C(=O)O)c3)ncnc21 | 107 | i | 1 | -9 | -1.9 | -37 | 31
Cc1cc(C)cc(NC(=S)NCCSc2ccc(Cl)cc2)c1 | 96 | i | 0.86 | -10 | -2.1 | -9 | 183
O=S(=O)(c1cccc(-c2csc(N/N=C/c3ccco3)n2)c1)N1CCOCC1 | 102 | i | 1.1 | nt | nt | nt | nt
COCNc1nc(OCC#N)nc(N(C)C)n1 | 104 | i | 0.94 | -8 | -0.4 | nt | nt
Cc1cccc2cc(CN(Cc3ccco3)C(=O)Nc3cccc(C#N)c3)c(Cl)nc12 | 147 | i | 0.87 | -10 | -2.4 | 18 | 52
COc1ccc(OC)c(NS(=O)(=O)Cc2ccccc2)c1 | 89 | nt | nt | 10 | -0.8 | nt | nt
CCOc1ccc(NC(=O)CCCN2C(=S)NC(C)(C)CC2C)cc1 (stereo unspecified) | 102 | i | 0.79 | 0 | -1.1 | -46 | 67
Cc1cc(C)c2nc3c(c(C(=O)O)c2c1)CCC3 | 114 | i | 0.82 | -4 | -1.5 | -11 | 118
C=CC#CC[N+]1(CC#Cc2ccccc2)CCOCC1 | 108 | i | 1.1 | 20 | -1.5 | -3 | 105
CCn1c(SCC(=O)N/N=C/C(C)=C\c2ccco2)nnc1-c1ccccc1 | 23 | i | 1.1 | -9 | -1.4 | 10 | 80
O=S(=O)(c1ccc2ccccc2c1)N(CC(O)COCc1ccco1)c1ccccc1 (stereo unspecified) | 105 | i | 0.94 | -5 | -1.8 | -3 | 137
COc1ccc(NS(=O)(=O)c2ccc(N)c(C(=O)O)c2)cc1 | 190 | i | 0.99 | 3 | -1.7 | -23 | 133

In a second layout: results already given
> Cn1ncc2c(Nc3cccc(C(=O)O)c3)ncnc21
  RGS16-Gao HTS = 107
  HSV augment = i
  HSV augment primary fold = 1
  PKD1 inh = -9
  GALR2 agonist = -1.9
  INS promoter inh = -37
  INS promoter inh cell count = 31

> COc1ccc(OC)c(NS(=O)(=O)Cc2ccccc2)c1
  RGS16-Gao HTS = 89
  HSV augment = nt
  HSV augment primary fold = nt
  PKD1 inh = 10
  GALR2 agonist = -0.8
  INS promoter inh = nt
  INS promoter inh cell count = nt

Screening results from PubChem.
